MenB inh – Mtb MenB enzyme inhibition; P9WNP5; MenB enzyme assay, absorbance read-out; some hits fall short of the stated cut; inhibition, %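 (about 12 µg/mL by stock and volumes)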; 100,000 tested, 0.43% active;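 active = mean of two replicates above 30%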;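 also: 0% = no compound and 100% = wells with inactive enzyme; the first replicate is given; strong numbers were not always called active; inactives centre near -10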
Target sequence (P9WNP5 whole entry, looked up): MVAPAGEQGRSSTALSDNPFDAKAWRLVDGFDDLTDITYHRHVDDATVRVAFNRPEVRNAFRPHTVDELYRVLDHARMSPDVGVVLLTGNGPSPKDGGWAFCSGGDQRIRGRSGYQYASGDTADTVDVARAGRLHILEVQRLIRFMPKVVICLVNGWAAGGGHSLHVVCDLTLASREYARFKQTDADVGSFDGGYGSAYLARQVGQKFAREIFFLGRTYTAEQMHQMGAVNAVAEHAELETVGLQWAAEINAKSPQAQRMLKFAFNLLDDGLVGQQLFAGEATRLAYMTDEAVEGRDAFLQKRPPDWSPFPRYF
MbtI inh – blocks the Mycobacterium tuberculosis siderophore enzyme MbtI; P9WFX0; purified MbtI enzyme, fluorescence intensity read-out; inhibition, %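 (about 17 µg/mL by stock and volumes)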; 100,000 tested, 0.89% active; AID 493033;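 active = above 50% in both replicates, above 80% if mildly self-fluorescent; inactive = the rest, strongly fluorescent compounds included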;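 also: 0% = mean of negative and 100% = mean of positive controls; one replicate is shown; some compounds called inactive have numbers as strong as hits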
Polio RdRp inh – inhibitors of poliovirus RNA polymerase binding and polymerization | poliovirus polymerase elongation, fluorescence polarization; stronger effect = lower value | 150,000 tested, 0.66% active | % elongation, % (compound at 16.7 µg/mL) | P03300; in the data active = % elongation below about 90%; also: some results filed as inactive read as strong as hits
Target sequence (P03300 1749-2209 limits assumed): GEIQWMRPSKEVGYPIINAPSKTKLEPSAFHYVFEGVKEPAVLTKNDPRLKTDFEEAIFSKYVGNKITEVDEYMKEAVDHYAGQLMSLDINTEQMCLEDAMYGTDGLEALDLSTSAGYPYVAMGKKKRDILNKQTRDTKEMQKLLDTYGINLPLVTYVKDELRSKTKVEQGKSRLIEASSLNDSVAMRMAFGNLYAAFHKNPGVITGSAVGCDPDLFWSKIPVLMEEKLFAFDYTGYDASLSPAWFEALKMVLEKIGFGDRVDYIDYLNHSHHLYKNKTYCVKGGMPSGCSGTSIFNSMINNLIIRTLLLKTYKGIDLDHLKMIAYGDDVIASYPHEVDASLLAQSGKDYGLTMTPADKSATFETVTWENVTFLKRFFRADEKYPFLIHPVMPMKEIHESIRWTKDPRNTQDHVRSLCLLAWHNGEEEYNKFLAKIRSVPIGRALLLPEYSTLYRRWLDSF
Polio RdRp inh intensity – recorded beside Polio RdRp inh, whose call it bears; % elongation; measured here: total intensity read-out; formula for this scale not given here;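 total fluorescence in place of polarization; lower means less elongation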
* hit, by the source's call.

Results for CCOC(=O)c1oc2ccc(Br)cc2c1CSc1nnc(C)s1 ?
MenB inh: -22; MbtI inh: -6; Polio RdRp inh: 103; Polio RdRp inh intensity: 110

How did CN(C)Cc1n[nH]c(=S)o1 do in these assays?
MenB inh: -19; MbtI inh: 90*; Polio RdRp inh: 75*; Polio RdRp inh intensity: 73*

Results for CCOC(=O)c1nc(-c2cc[n+](C)cc2)no1 ?
MenB inh: 8; MbtI inh: 1; Polio RdRp inh: 101; Polio RdRp inh intensity: 102

What do the screens show for `CCCCNc1c2c(c(C#N)c3nc4ccccc4n13)CCC2`?
MenB inh: -41; MbtI inh: -2; Polio RdRp inh: 101; Polio RdRp inh intensity: 107

Results for NC(=O)C(C(=O)/C=C/c1ccccc1)=C1SCCS1 ?
MenB inh: -199; MbtI inh: 0; Polio RdRp inh: 105; Polio RdRp inh intensity: 103

Results for COC(=O)c1nnn(CC(=O)NC(=O)Nc2ccccc2)c1C(=O)OC ?
MenB inh: -22; MbtI inh: -12; Polio RdRp inh: 101; Polio RdRp inh intensity: 102

Results for COc1cccc(NC(=O)c2cc3c(=O)oc4ccccc4c3s2)c1 ?
MenB inh: -4; MbtI inh: 29; Polio RdRp inh: 99; Polio RdRp inh intensity: 100

How did C=CCn1c(C)cc(C(=O)CSc2nc3ccccc3[nH]2)c1C do in these assays?
MenB inh: 3; MbtI inh: -5; Polio RdRp inh: 107; Polio RdRp inh intensity: 104

Results for Cn1cnnc1Sc1ccc(Cl)cc1N ?
MenB inh: 3; MbtI inh: 19; Polio RdRp inh: 102; Polio RdRp inh intensity: 103

What do the screens show for `Nc1nnc(CCc2ccccc2)s1`?
MenB inh: 11; MbtI inh: -77; Polio RdRp inh: 102; Polio RdRp inh intensity: 102

What do the screens show for `CC(=NCCc1ccccc1)C1=C(O)CSC1=O`?
MenB inh: -15; MbtI inh: 19; Polio RdRp inh: 101; Polio RdRp inh intensity: 98

How did C[C@H]1CC2C([C@@H](O)C[C@@]3(C)C2CC[C@]3(O)C(=O)CO)[C@@]2(C)C=CC(=O)C=C12 (some centres not stated) do in these assays?
MenB inh: -4; MbtI inh: -13; Polio RdRp inh: 103; Polio RdRp inh intensity: 101

What do the screens show for `CC1CCCC(NC(=O)COC(=O)CCc2ccccc2)C1C` (configuration not stated)?
MbtI inh: -11; Polio RdRp inh: 101; Polio RdRp inh intensity: 105

What do the screens show for `O=C(CCc1ccccc1)NCC1COC2(CCCCC2)O1` (configuration not stated)?
MenB inh: -22; MbtI inh: -9

Results for CCCC(=O)Nc1sc2c(c1C(N)=O)CCC2 ?
MenB inh: 22; MbtI inh: 29; Polio RdRp inh: 100; Polio RdRp inh intensity: 107

Results for CC(=O)N1CCc2ccccc2C1CNC1=CC(=O)CC(C)(C)C1 (configuration not stated) ?
MenB inh: -5; Polio RdRp inh: 104; Polio RdRp inh intensity: 104

How did O=C(O)c1ccc(OCC2CCCO2)cc1 (configuration not stated) do in these assays?
MbtI inh: -10; Polio RdRp inh: 102; Polio RdRp inh intensity: 96

What do the screens show for `NC(=O)c1cc(-c2csc(-c3ccccn3)n2)ccc1O`?
MenB inh: -6; MbtI inh: 4; Polio RdRp inh: 101; Polio RdRp inh intensity: 95

What do the screens show for `O=C(O)c1ccc(CN2CCCCC2)o1`?
MenB inh: -10; Polio RdRp inh: 99; Polio RdRp inh intensity: 107

What do the screens show for `Cc1cc(C)nc(SCC(=O)Oc2ccc3oc(=O)cc(C)c3c2)n1`?
MenB inh: 9; MbtI inh: -14; Polio RdRp inh: 100; Polio RdRp inh intensity: 102

What do the screens show for `CCOc1ccccc1-c1n[nH]c(=S)n1N`?
MenB inh: -7; MbtI inh: 90; Polio RdRp inh: 83*; Polio RdRp inh intensity: 89*

Results for O=C1CC(N(Cc2ccc3c(c2)OCO3)C(=O)Nc2ccc(F)cc2)C(=O)N1c1ccccc1 (configuration not stated) ?
MenB inh: -3; MbtI inh: -5; Polio RdRp inh: 99; Polio RdRp inh intensity: 102

How did CCc1[nH]c(=S)c(C#N)c(-c2ccccc2)c1C(=O)OC do in these assays?
MenB inh: -76; Polio RdRp inh: 105; Polio RdRp inh intensity: 101

What do the screens show for `COc1ccc2[nH]c3c(c2c1)CN(C)CC3`?
MenB inh: -15; MbtI inh: -4; Polio RdRp inh: 103; Polio RdRp inh intensity: 103

Results for NS(=O)(=O)c1ccc(CCNC(=O)c2ccc3c(=O)n4c(nc3c2)CCCCC4)cc1 ?
MenB inh: 2; MbtI inh: -28; Polio RdRp inh: 99; Polio RdRp inh intensity: 108

How did CCN(CC)C(=O)C1CCCN(C/C=C/c2ccccc2)C1 (configuration not stated) do in these assays?
MenB inh: -14; MbtI inh: -12; Polio RdRp inh: 101; Polio RdRp inh intensity: 105

Results for COc1cccc(Nc2nc3ccccc3nc2NS(=O)(=O)c2cccs2)c1 ?
MenB inh: -22; MbtI inh: -75; Polio RdRp inh: 97; Polio RdRp inh intensity: 103

What do the screens show for `O=CN/N=C/c1ccc(C(=O)O)cc1`?
MenB inh: -6; MbtI inh: 9; Polio RdRp inh: 101; Polio RdRp inh intensity: 105

Results for C=CCNc1nc(C(=O)OCC(=O)N(C)C2CCS(=O)(=O)C2)cs1 (configuration not stated) ?
MenB inh: -17; MbtI inh: -3; Polio RdRp inh: 101; Polio RdRp inh intensity: 99

How did CC(C)(C#N)NC(=O)Nc1ccccc1 do in these assays?
MenB inh: -14; MbtI inh: -3; Polio RdRp inh: 101; Polio RdRp inh intensity: 97

Random excerpt: three compounds from above
How did CC(C)(C#N)NC(=O)Nc1ccccc1 do in these assays?
MenB inh: -14; MbtI inh: -3; Polio RdRp inh: 101; Polio RdRp inh intensity: 97

How did CCN(CC)C(=O)C1CCCN(C/C=C/c2ccccc2)C1 (configuration not stated) do in these assays?
MenB inh: -14; MbtI inh: -12; Polio RdRp inh: 101; Polio RdRp inh intensity: 105

Results for COc1cccc(Nc2nc3ccccc3nc2NS(=O)(=O)c2cccs2)c1 ?
MenB inh: -22; MbtI inh: -75; Polio RdRp inh: 97; Polio RdRp inh intensity: 103

Other structures:
How did CCn1cc(C(=O)NC2CCCCCCC2)c(=O)c2cc(S(=O)(=O)N(C)C)ccc21 do in these assays?
MenB inh: 4; MbtI inh: -1; Polio RdRp inh: 100; Polio RdRp inh intensity: 100

What do the screens show for `COCCCN1C(=S)NC2c3cccc(OC)c3OC1(C)C2C(=O)N(C)C` (configuration not stated)?
MenB inh: -1; MbtI inh: -7; Polio RdRp inh: 102; Polio RdRp inh intensity: 102

What do the screens show for `O=C(OCc1ncc(-c2ccccc2)o1)c1cc2c(s1)CCC2`?
MenB inh: -18; MbtI inh: -4; Polio RdRp inh: 101; Polio RdRp inh intensity: 105

What do the screens show for `Nc1ncnc2nc(SCCO)[nH]c12`?
MenB inh: -6; MbtI inh: 42; Polio RdRp inh: 101; Polio RdRp inh intensity: 100

How did COC(=O)c1cccc(NC(=O)c2ccccc2C(=O)O)c1 do in these assays?
MenB inh: 2; MbtI inh: -3; Polio RdRp inh: 103; Polio RdRp inh intensity: 105

Results for CCOC(=O)c1c(C)oc2ccc(OCC(N)=O)cc12 ?
MenB inh: 24; MbtI inh: 8; Polio RdRp inh: 101; Polio RdRp inh intensity: 102

What do the screens show for `CC1CC(C)CN(C(=O)c2ccc3c(c2)N(Cc2ccccc2)C(=O)c2ccccc2S3=O)C1` (configuration not stated)?
MenB inh: -11; MbtI inh: -7; Polio RdRp inh: 102; Polio RdRp inh intensity: 103

Results for C=CCn1ncc(OC)c(Cl)c1=O ?
MenB inh: -26; MbtI inh: -7; Polio RdRp inh: 100; Polio RdRp inh intensity: 102

What do the screens show for `O=C(OCCN1C(=O)c2ccccc2C1=O)c1ccccc1`?
MenB inh: -21; MbtI inh: -4; Polio RdRp inh: 102; Polio RdRp inh intensity: 106

Results for Oc1ccc(/C=N/n2c(-c3ccco3)csc2=Nc2ccc(F)cc2F)c(O)c1 ?
MenB inh: -61; MbtI inh: 4; Polio RdRp inh: 110; Polio RdRp inh intensity: 97

4 structures out of the list, arranged by formula weight, descending:
Results for O=C1CC(N(Cc2ccc3c(c2)OCO3)C(=O)Nc2ccc(F)cc2)C(=O)N1c1ccccc1 (configuration not stated) ?
MenB inh: -3; MbtI inh: -5; Polio RdRp inh: 99; Polio RdRp inh intensity: 102

What do the screens show for `O=C(OCc1ncc(-c2ccccc2)o1)c1cc2c(s1)CCC2`?
MenB inh: -18; MbtI inh: -4; Polio RdRp inh: 101; Polio RdRp inh intensity: 105

Results for Cn1cnnc1Sc1ccc(Cl)cc1N ?
MenB inh: 3; MbtI inh: 19; Polio RdRp inh: 102; Polio RdRp inh intensity: 103

What do the screens show for `CCOc1ccccc1-c1n[nH]c(=S)n1N`?
MenB inh: -7; MbtI inh: 90; Polio RdRp inh: 83*; Polio RdRp inh intensity: 89*

Further results follow:
What do the screens show for `CC(Oc1cccc(Cl)c1)C(=O)O/N=C(\N)c1cccnc1` (configuration not stated)?
MenB inh: -9; MbtI inh: -11; Polio RdRp inh: 103; Polio RdRp inh intensity: 102

Results for O=C(O)c1ccc(N2C(=O)CCC2=O)cc1 ?
MbtI inh: -4; Polio RdRp inh: 100; Polio RdRp inh intensity: 104

How did COc1ccccc1-n1c(-c2cccs2)nn(CN2CCCC(O)C2)c1=S (configuration not stated) do in these assays?
MenB inh: -22; MbtI inh: -17; Polio RdRp inh: 99; Polio RdRp inh intensity: 97

Results for Cc1cccc(C(C)C)c1NC(=O)c1cccnc1 ?
MenB inh: 18; MbtI inh: 1; Polio RdRp inh: 102; Polio RdRp inh intensity: 103

How did COc1ccc(-c2cn3cccnc3n2)cc1NC(=O)c1cc(OC)c(OC)c(OC)c1 do in these assays?
MenB inh: -37; MbtI inh: 40; Polio RdRp inh: 99; Polio RdRp inh intensity: 101

Results for CSc1ncc(Cl)c(C(=O)Nc2nnc(SCc3ccc(F)cc3)s2)n1 ?
MenB inh: -5; MbtI inh: 9; Polio RdRp inh: 104; Polio RdRp inh intensity: 99

What do the screens show for `CCn1c(SC(C)C(=O)NC(N)=O)nc2ccccc2c1=O` (configuration not stated)?
MenB inh: -32; MbtI inh: -4; Polio RdRp inh: 105; Polio RdRp inh intensity: 102

Results for CC1CCc2nn(CC(=O)N3CCc4ccccc43)cc2C1 (configuration not stated) ?
MenB inh: -25; MbtI inh: -4; Polio RdRp inh: 103; Polio RdRp inh intensity: 103

What do the screens show for `Cn1cc(C(=O)NCCCN2CCCC2)c2c3ccccc3n(C)c2c1=O`?
MenB inh: -17; MbtI inh: 110; Polio RdRp inh: 101; Polio RdRp inh intensity: 95

How did COc1ccc2c(=O)c(-c3ccccn3)coc2c1 do in these assays?
MenB inh: -16; MbtI inh: 2; Polio RdRp inh: 101; Polio RdRp inh intensity: 103

Results for CCCCC(=O)N1c2ccccc2NC2=C(C(=O)CCC2)C1c1ccc(N(C)C)cc1 (configuration not stated) ?
MenB inh: -5; MbtI inh: 2; Polio RdRp inh: 104; Polio RdRp inh intensity: 103

How did Cc1cc(C(=O)OCC(=O)C(C)(C)C)c(C)o1 do in these assays?
MbtI inh: 2; Polio RdRp inh: 100; Polio RdRp inh intensity: 104

How did Cc1cc(NC(=O)Nc2cn(C)c(=O)c3ccccc23)no1 do in these assays?
MenB inh: 3; MbtI inh: -20; Polio RdRp inh: 91; Polio RdRp inh intensity: 90

What do the screens show for `O=C1NN=C2CC34CCC12CC3=NNC4=O`?
MenB inh: 19; MbtI inh: 0; Polio RdRp inh: 105; Polio RdRp inh intensity: 94

Results for COc1ccccc1OCCSc1nc(-c2ccccc2)c(-c2ccccc2)[nH]1 ?
MenB inh: -22; MbtI inh: 107; Polio RdRp inh: 101; Polio RdRp inh intensity: 107

What do the screens show for `Cc1c(C2=CCN(S(=O)(=O)Cc3ccccc3)CC2)c2ccccc2n1CC(=O)N1CCCC1`?
MenB inh: -21; MbtI inh: 10; Polio RdRp inh: 101; Polio RdRp inh intensity: 105

Results for OCC(O)CN1CCc2ccccc21 (configuration not stated) ?
MenB inh: 0; MbtI inh: -15; Polio RdRp inh: 101; Polio RdRp inh intensity: 100

What do the screens show for `N#CC1=C(N)n2c(nc3ccccc32)NC1c1ccc(Cl)cc1` (configuration not stated)?
MenB inh: -62; MbtI inh: 12; Polio RdRp inh: 99; Polio RdRp inh intensity: 103

Results for CC1(c2ccccc2)OC(=O)C(C#N)C12CCCCC2 (configuration not stated) ?
MenB inh: 9; MbtI inh: -20; Polio RdRp inh: 101; Polio RdRp inh intensity: 105

Results for O=C(O)/C=C/C(=O)NC1CCN(c2nccc(C(F)(F)F)n2)CC1 ?
MenB inh: -5; MbtI inh: -8; Polio RdRp inh: 106; Polio RdRp inh intensity: 104

Results for CN(C)c1cc(N)c2c(n1)CCC2 ?
MenB inh: -44; MbtI inh: 89; Polio RdRp inh: 101; Polio RdRp inh intensity: 99
